Resorufin fluor – qHTS Assay for Spectroscopic Profiling in Resorufin Spectral Region | Compound fluorescence, resorufin region 547/598 nm, buffer; hits give high values | max dye-equivalent concentration, M | 59,000 tested, 0.04% active | AID 588, 2007; active = above 10 nM dye equivalent; inconclusive = 1 to 10 nM; inactive = 1 nM or less; a few of its hits are not listed in these tables; note: highest value over a series up to 38 µM
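Compounds in 100 mM Tris, pH 8.0, incubated 15 min at room temperature, then fluorescence read at 547 nm excitation/598 nm emission. Signal converted to dye-equivalent concentration via an on-plate six-point resorufin standard curve, per compound concentration.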
A647 fluor – qHTS Assay for Spectroscopic Profiling in A647 Spectral Region; 59,000 tested, under 10 active; max dye-equivalent concentration, M; AID 592, 2007; Compound fluorescence, A647 channel (570/671 nm), Tris buffer; active means above 1 µM dye equivalent; inconclusive means 0.1 to 1 µM; inactive means 0.1 µM or less;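 note: values scaled relative to a standard on each plate; highest value over a series up to 38 µM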
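Compounds pinned into 100 mM Tris pH 8.0, 15 min at room temperature, then read with 570 nm excitation/671 nm emission filters. Fluorescence normalized to an on-plate six-point Alexa 647 standard curve, giving dye-equivalent concentration per compound concentration.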
TSHR ag – qHTS Assay for Agonists of the Thyroid Stimulating Hormone Receptor; Thyrotropin receptor (Homo sapiens), P16473; HEK293-CNG-TSHR cells (CNG channel as cAMP sensor), membrane potential dye, cAMP; Potency, µM (highest dose often 57.1 µM), inactives show top-dose activation, actives largely listed as activators; 73,000 tested, 0.48% active; active = well fitted activation curve of enough size with the parental cells flat; inconclusive = any curve in the parental cells; inactive = parental cells flat and receptor cells flat or falling; note: potency is the fitted concentration of half-maximal effect; % of control where 0% means no effect; weak receptor curves with flat parental cells got no call and are not listed
Target sequence (P16473 whole entry, looked up): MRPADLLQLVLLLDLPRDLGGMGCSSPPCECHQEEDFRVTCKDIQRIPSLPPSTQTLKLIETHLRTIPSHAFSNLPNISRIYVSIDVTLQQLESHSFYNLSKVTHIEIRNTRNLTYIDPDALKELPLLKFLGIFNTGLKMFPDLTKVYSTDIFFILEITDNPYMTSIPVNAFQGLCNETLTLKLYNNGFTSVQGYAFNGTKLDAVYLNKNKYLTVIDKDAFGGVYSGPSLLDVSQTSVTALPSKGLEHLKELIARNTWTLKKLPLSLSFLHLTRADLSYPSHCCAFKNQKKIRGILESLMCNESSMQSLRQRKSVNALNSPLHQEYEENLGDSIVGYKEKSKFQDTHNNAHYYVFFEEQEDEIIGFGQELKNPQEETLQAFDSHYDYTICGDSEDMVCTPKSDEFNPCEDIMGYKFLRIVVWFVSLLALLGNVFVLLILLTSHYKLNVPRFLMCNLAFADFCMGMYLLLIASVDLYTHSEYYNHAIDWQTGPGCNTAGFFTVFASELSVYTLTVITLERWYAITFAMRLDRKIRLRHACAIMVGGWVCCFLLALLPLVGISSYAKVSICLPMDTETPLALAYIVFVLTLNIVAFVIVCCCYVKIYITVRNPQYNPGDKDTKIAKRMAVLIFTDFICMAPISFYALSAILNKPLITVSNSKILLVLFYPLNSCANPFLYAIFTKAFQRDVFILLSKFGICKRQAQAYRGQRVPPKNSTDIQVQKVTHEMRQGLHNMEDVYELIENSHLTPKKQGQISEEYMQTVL
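HEK 293 cells stably expressing TSHR and a modified CNG channel, with CNG-only parental cells as counterscreen, were preloaded 60 min at room temperature with membrane potential dye containing 100 uM RO 20-1724. Compound exposure was 30 min, and depolarization was read as fluorescence at 590 nm.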
A488 autofl – qHTS Assay for Spectroscopic Profiling in A488 Spectral Region; compound autofluorescence, A488 spectral region, dye equivalency; hits give high values; max dye equivalency, M; 59,000 tested, 0.1% active; AID 591, 2007; active = above 10 nM dye equivalent; inconclusive = 1 to 10 nM; inactive = 1 nM or less; about half of its hits are not listed in these tables;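 note: highest value over a series up to 38 µM; compound alone in buffer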
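Spectroscopic profiling in the A488 region: compounds in pH 8.0 Tris (100 mM), 15 min RT, CCD imaging with 480 nm excitation and 540 nm emission; responses normalized against A488 dye standards.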
AID923 – qHTS Assay for Allosteric/Competitive Inhibitors of Caspase-1: Spectroscopic Profiling in AFC Spectral Region | compound fluorescence, AFC spectral region (405/520 nm); almost no hit is shown here | Potency, µM (top dose mostly 57.5 µM), inactives show top-dose fluorescence increase, actives largely listed as activators | 75,000 tested, 1.1% active | AID 923, 2007; active = well fitted activation curve with a large enough effect; inconclusive = small, poorly fitted or top-dose-only effect;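 note: potency is the fitted concentration of half-maximal effect; 0% is about no effect; scaled to a free AFC standard on each plate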
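Baseline compound fluorescence (AFC region, 405 nm ex/520 nm em) taken from the intercept of kinetic reads with 50 nM caspase-1 and 5 uM Ac-WEHD-AFC; normalized to an on-plate AFC standard curve; compounds titrated up to 57 uM.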
An asterisk follows results filed as active; i = inactive; ? = inconclusive; / = not tested or not shown; & = joins results of further samples; [ ] = another dose, or the depositor's remark. Only part of the results is shown. The share of hits here may be higher or lower than overall.

Molecule	Resorufin fluor	A647 fluor	TSHR ag	A488 autofl	AID923
O=S(=O)(Nc1ccc2c(c1)nc1n2CCN(Cc2ccccc2)C1)c1ccc(F)cc1	i	1e-09	0%	i	10%
Cc1ccc(C)c(N(C(=O)CCC(=O)Nc2cc(C)on2)C(C(=O)NC2CCCC2)c2ccco2)c1 (configuration not stated)	i	9.2e-09	1%	i	-2.1%
CCSc1nnc(NC(=O)c2csc(C)c2)s1	i	1e-09	8%	i	0.6%
COc1ccc(C(=O)Nc2nc(-c3cccs3)cs2)cc1	i	1.8e-08	?	i	-0.9%
NC(=O)c1ccc(C2SCC(=O)N2Cc2ccccc2)cc1 (configuration not stated)	i	4.3e-08	20%	i	0.3%
COC(=O)COc1ccc(S(=O)(=O)NCC2CCCO2)cc1Cl (configuration not stated)	i	8.2e-09	2%	i	-0.2%
COc1cc(C2C3C(=O)N(c4ccc(F)cc4)C(=O)C3ON2c2ccccc2)ccc1O (configuration not stated)	i	4.8e-09	/	i	/
Cn1c(=O)c2c(nc(NCCCO)n2C/C=C/c2ccccc2)n(C)c1=O	i	8.7e-08	7%	i	-1.0%
COc1ccc(C(=O)C(CO)Oc2ccccc2OC)cc1OC (configuration not stated)	i	1e-09	1%[11.4 µM]	i	-1.2%
CN1CCc2cc(Cl)c(O)cc2[C@H](c2ccccc2)C1	i	8.2e-09	/	i	-0.3%
CCOC(=O)N1CCN(S(=O)(=O)Cc2ccccc2)CC1	i	1e-09	?	i	-0.8%
CCCS(=O)(=O)N1CCN(Cc2ccccc2C(F)(F)F)CC1	i	3.1e-09	13%	i	0.0%
COc1ccc(-c2nc(C#N)c(N3CC(C)OC(C)C3)o2)cc1OC (configuration not stated)	i	9e-09	/	i	-1.0%
O=C(C1CCN(Cc2cc(Cl)ccc2O)CC1)N1CCN(Cc2ccccc2)CC1	i	2.9e-08	/	i	-0.7%
Cc1ccc2oc(=O)cc(CN3CCC(C)CC3)c2c1	i	1e-09	?	i	1.1%
CCc1cc2c(=O)[nH]cnc2s1	i	2.4e-08	9%	i	-0.9%
CCCCNC(=O)C1C2C=CC3(CN(Cc4ccccc4Cl)C(=O)C13)O2 (configuration not stated)	i	3.8e-08	1%[11.4 µM]	i	0.4%
CCCCc1oc2ccccc2c1C(=O)c1cc(I)c(OCCN(CC)CC)c(I)c1	i	2.4e-09&2.3e-08&1.7e-09	?	i	-2.6%
O=c1cc(-c2ccccc2Cl)c2c([nH]1)CCC2	/	/	5%	/	0.2%
CC1(C)S[C@@H]2[C@H](NC(=O)Cc3ccccc3)C(=O)N2[C@H]1C(=O)O	i	2.7e-08&1.4e-08	18%[25.6 µM]	i	1.3%[25.7 µM]
COc1ccc(CNC(=O)C2C3C=CC4(CN(Cc5cccnc5)C(=O)C24)O3)cc1 (configuration not stated)	i	2.9e-09	5%	i	1.2%
Cc1c(N=Cc2nc3ccccc3n2C)c(=O)n(-c2ccccc2)n1C	/	/	0%	/	0.0%
Cc1ccc(-c2nnc(SCC(=O)N3CCN(c4ccccc4)CC3)o2)cc1	i	1e-09	20%	i	0.3%
CCOC(=O)CN1C(=O)C(=O)c2cccc(C)c21	/	/	7%	/	1.0%
COc1ccccc1-n1c(SCC(=O)N2CCCCC2)nc2cccnc21	i	5e-09	-1%	i	0.0%
Cc1c(N=C2NC(=O)C(CC(=O)Nc3ccc(Cl)cc3)S2)c(=O)n(-c2ccccc2)n1C (configuration not stated)	i	8.9e-09	-25%	i	1.7%
COc1cccc(C2CC(C(F)(F)F)n3ncc(C(=O)NCC4CCCO4)c3N2)c1 (configuration not stated)	i	1e-09	3%	i	-0.5%
O=C(CC(Nc1ccccc1)C(=O)O)c1ccccc1 (configuration not stated)	i	3.1e-08	-4%	i	-0.6%
CCc1cccc(NC(=O)C2CCCC2)c1	i	1e-09	24%	i	-0.7%
CN1CCc2c(sc(NC(=O)c3ccc(S(=O)(=O)N4CCOCC4)cc3)c2C(N)=O)C1	/	/	?	/	6.2%
CC(C)Cc1cc(C(=O)N2CCN(c3ccc(F)cc3)CC2)no1	/	/	?	/	0.4%
O=C(O)CSc1nnc(CNc2ccccc2Cl)n1-c1ccccc1	i	5.6e-09	?	i	0.0%
CCOC(=O)Cn1cnc2c(nnn2-c2ccc(OC)cc2)c1=O	i	1e-09	5%	i	1.3%
O=C1OCCC1Sc1nc2ccccc2n1-c1ccccc1 (configuration not stated)	i	1.3e-09	6%	i	2.8%
CCN(CC(=O)Nc1ccccc1OC)C(=O)C1CC2C=CC1C2 (configuration not stated)	i	1.6e-09	4%	i	1.5%
O=C(CN1CCN(Cc2ccc3c(c2)OCO3)CC1)N1CCc2[nH]c3ccc(F)cc3c2C1	i	2.3e-08	-8%	i	6.6%
COc1ccc(-c2nn(-c3ccccc3)cc2CO)cc1OC	/	/	-7%[11.4 µM]	/	0.0%
CC(C)(C)OC(=O)N1CCCC1C(=O)N1CCc2ccccc21 (configuration not stated)	i	1e-09	6%	i	-1.4%
N=C1[C@@H](O)[C@]2(I)c3ccccc3N3C(=N)[C@H](O)[C@@H]4c5ccccc5N1[C@@H]4[C@@H]32	?	2.1e-08	?	i	8.5%[11.5 µM]
Cc1ccc(Nc2nc(N3CCOCC3)nc(N3CCOCC3)n2)cc1	/	/	3%	/	1.5%

3 entries from above, with each value named:
Structure: COc1ccc(CNC(=O)C2C3C=CC4(CN(Cc5cccnc5)C(=O)C24)O3)cc1 (configuration not stated)
  Resorufin fluor: i
  A647 fluor: 2.9e-09
  TSHR ag: 5%
  A488 autofl: i
  AID923: 1.2%

Structure: Cc1c(N=Cc2nc3ccccc3n2C)c(=O)n(-c2ccccc2)n1C
  Resorufin fluor: /
  A647 fluor: /
  TSHR ag: 0%
  A488 autofl: /
  AID923: 0.0%

Structure: COc1ccc(-c2nn(-c3ccccc3)cc2CO)cc1OC
  Resorufin fluor: /
  A647 fluor: /
  TSHR ag: -7%[11.4 µM]
  A488 autofl: /
  AID923: 0.0%

Next entries
Molecule	Resorufin fluor	A647 fluor	TSHR ag	A488 autofl	AID923
Cc1ccc(C2N(c3cccc(Cl)c3)C(=O)C3CCCN32)o1 (configuration not stated)	/	/	5%	/	-1.5%
Cc1ccc(S(=O)(=O)C(C#N)c2nc3ccccc3nc2N2CC(C)OC(C)C2)cc1C (configuration not stated)	i	1.2e-08	/	i	17%
CCc1cccc(NC(=O)CCc2nc(-c3cccs3)no2)c1	/	/	25%	/	0.7%
CCOC(=O)N1CCN(C(=O)C2c3cc(OC)c(OC)cc3C(=O)N3CCc4ccccc4C23)CC1 (configuration not stated)	i	9.4e-09	0%	i	-0.2%
CC1(C)OC(C(O)(c2cc(F)c(F)c(F)c2)c2cc(F)c(F)c(F)c2)C(C(O)(c2cc(F)c(F)c(F)c2)c2cc(F)c(F)c(F)c2)O1 (configuration not stated)	/	/	10%[11.4 µM]	/	0.0%[11.5 µM]
COC(=O)c1ccccc1NC(=O)CN1CCC(n2nnc3cc(C)ccc32)CC1	i	2.4e-08	8%	i	0.2%
COc1cc(C2=NOC(C(=O)N3CCN(c4ccc(F)cc4)CC3)C2)cc(OC)c1OC (configuration not stated)	i	1.8e-08	5%	i	3.5%
c1ccc(-c2noc(C3CCCCC3)n2)nc1	i	1e-09	1%	i	0.1%
CN1CCN(c2nc3nonc3nc2N2CCN(C)CC2)CC1	i	1.9e-08	2%	i	2.6%
COc1cccc(C2CC(c3ccccc3Cl)n3ncnc3N2)c1 (configuration not stated)	i	1e-09	8%	i	-0.1%
COc1cccc(-c2noc(CCC(=O)Nc3cccnc3)n2)c1	i	8.9e-09	-2%	i	0.5%
COc1ccc(N2CCN(C(=O)c3ccc(-n4nc(C)cc4C)cc3)CC2)cc1	i	1e-09	/	i	-0.5%
Cc1cc(C)n(CCOc2ccc(Cl)cc2Cl)n1	i	1.3e-08	-8%	i	0.0%
COc1ccc(OC)c(S(=O)(=O)N2C(C)CCCC2C)c1 (configuration not stated)	i	3.6e-08	9%	i	-0.4%
COc1cccc(-c2nnc(NC(=O)c3ccc(S(=O)(=O)N4CC(C)OC(C)C4)cc3)o2)c1 (configuration not stated)	i	1e-09	2%	i	-0.7%
CN(Cc1ccco1)C(=O)C1CCC(=O)N1Cc1ccc(F)cc1 (configuration not stated)	i	1.7e-08	4%	i	0.6%
CCOc1cc(C(=O)Nc2cc(C)on2)cc(OCC)c1OCC	i	6e-09	5%	i	-0.2%
Cn1c(=O)c2c(nc(CN3CCN(c4ccccc4)CC3)n2CCc2ccccc2)n(C)c1=O	i	3.4e-08	?	i	-0.7%
CCCCSc1nc(C)c(CC(=O)OC)c(=O)[nH]1	i	8.7e-09	?	i	0.4%
COc1ccc(-c2ccc(SCC(=O)N3CCOCC3)nn2)cc1	i	1e-09	-13%	i	-1.6%
O=C1C(Cl)=C(N2CCCCC2)C(=O)N1c1ccccc1	/	/	28%	/	2.1%
COc1cccc(-c2nn(C)c3sc(C(=O)NCc4ccccn4)cc23)c1	i	1.8e-09	1%	i	-2.2%
CC1Cc2ccccc2N1C(=O)CSc1nc2ccccc2n1CC(=O)N1CCOCC1 (configuration not stated)	i	7.2e-09	-3%[11.4 µM]	i	-1.0%
CC(C)C(NS(=O)(=O)c1cccs1)C(=O)NCCN1CCN(c2ccccc2)CC1 (configuration not stated)	i	1.1e-08	-3%	i	-0.6%
COc1ccc2cc(CN(CCc3ccccc3)Cc3nnnn3Cc3ccco3)c(=O)[nH]c2c1	i	4.5e-09	?	i	5.6%
COc1ccc(C2C(C(=O)N3CCOCC3)CCC(=O)N2c2cc(OC)c(OC)c(OC)c2)cc1 (configuration not stated)	i	2e-08	-1%	i	0.4%
CCCCCCn1c(SCC(C)C)nc2c1c(=O)[nH]c(=O)n2C	i	6.7e-09	?	i	-1.3%
CCc1ccc2[nH]c(=O)c(CN(Cc3ccccc3OC)Cc3nnnn3Cc3ccco3)cc2c1	i	2.2e-08	?	i	8.8%
Cc1cc(C)cc(NC(=O)CSc2nnc(Cn3c(=O)sc4ccccc43)n2C)c1	/	/	2%	/	-2.7%
COC(=O)c1cc(=O)nc2sc(-c3cccs3)nn12	i	4.6e-09	-2%	i	-0.2%
Cc1n[nH]c2ccccc2c1=O	i	1.4e-08	-4%[11.4 µM]	i	1.8%[11.5 µM]
CCn1nc(C(=O)OCc2c(C)noc2C)c2ccccc2c1=O	i	1e-09	17%[11.4 µM]	i	2.2%
CCOC(=O)C1CCN(Cc2nc(-c3ccc(OC)c(OC)c3)no2)CC1	i	1.5e-08	7%	i	0.6%
Cc1ccc(-c2cnc(-c3ccncc3)o2)cc1	/	/	26%[11.4 µM]	/	11%
